BJeLR lethal = kills HRASV12-expressing BJeLR cells; BJeLR (HRASV12) viability, CellTiter-Glo ATP luminescence, 48 h; reference of the scale not given here; inhibition, % (concentration not given with the values); actives 0.17% (n = 300,000); AID 1554;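 active means replicate mean above 50%; inconclusive means above 50% but judged a plate artefact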;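 further: 50 nL library stock added to about 25 µL; numbers are from one replicate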
PrP 5UTR inh = suppresses PrP 5' UTR mRNA reporter expression; cell-based PrP 5' UTR mRNA reporter, plate reader; inhibition, % (test concentration not listed); actives 0.35% (n = 340,000); AID 488862;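 active means every replicate at 50% or more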;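 further: 0 = median of the neutral control wells; tested in H4 reporter cells; numbers are from one replicate; inactives centre near -14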
Sa RN4220 lethal = S. aureus RN4220 growth inhibition | OD600, 16 h | inhibition, % (concentration not given with the values) | actives 0.33% (n = 330,000);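 active means z-score of -3 or lower and OD600 up to 0.18 on both plates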;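 further: plate controls were untreated cells for no effect and reference antibiotic for full effect; stock transfer was 100 nL into about 80 µL; one replicate is shown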
Autofluor counter = flagged as autofluorescent in microsphere protease counterscreen; compound autofluorescence counterscreen, microsphere flow cytometry; active compounds read high; fluorescence intensity (no concentration beside the values); actives 3.1% (n = 360,000);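 active means at least 3 SD above the mean of all compounds, about 16000 in these data; inconclusive means too few beads counted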;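 further: 100 nL of 1 mM stock went into each well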
Sa ugtP lethal = compounds lethal to S. aureus RN4220 ugtP deletion mutant | OD600 growth, 16 h; some inactives read as strong as hits | growth inhibition, % (test concentration not listed) | actives 0.54% (n = 330,000) | AID 1259309;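 active means z-score under -3 and OD600 up to 0.15 on both plates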;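 further: plate controls were untreated wells for no effect and antibiotic for full effect; wells of about 80 µL received 100 nL stock; the first replicate is given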
Mtb hypoxia inh = Mtb hypoxia fluorescent reporter inhibition. M. tuberculosis hypoxia-regulated fluorescent reporter, fluorescence. actives 0.1% (n = 300,000). fluorescence inhibition, % (test concentration not listed);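 active means 35 to 45% if threefold the growth effect, above 45% if 1.5-fold the growth effect; inactive means the rest, general growth blockers included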;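 further: wells of about 50 µL received 100 nL stock; 0% = vehicle wells and 100% = reference inhibitor wells; whole bacteria with a GFP reporter of the hypoxia response; strong numbers were not always called active; many hits fall short of the cut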
Mtb hypoxia inh growth = further read-out of Mtb hypoxia inh, marked with its call; growth inhibition, %; measured here: M. tuberculosis growth (absorbance);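 0% = vehicle and 100% = reference antibiotic; read after six days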
* marks the source's active call; other numbers are inactive results; ? = inconclusive; / = not tested or not shown.

nr	SMILES	Mtb hypoxia inh	Sa RN4220 lethal	PrP 5UTR inh	Autofluor counter
1	COc1ccc(NC(=O)N2CCN(C(=O)C(Cc3ccc(F)cc3)NC(C)=O)CC2)cc1 (stereo not given)	7	12	-21	3221
2	CCOc1ccc(NC(=O)C2C(C(=O)O)C3(Cl)C(Cl)=C(Cl)C2(Cl)C3(Cl)Cl)cc1 (stereo not given)	-12	0.4	-27	4269
3	Cc1ccc2c(CC(=O)NCC3(N4CCOCC4)CCCCC3)coc2c1C	10	4.5	-16	6382
4	Oc1cccc(/C=N/NC(=S)Nc2cccnc2)c1O	/	/	4	2414
5	CCOc1ccc(NC(=O)C2CC(=O)N(c3ccc4c(c3)OCCO4)C2)cc1OCC (stereo not given)	6	-1.5	3	5825
6	O=C(/C=C/c1ccccc1)N1CCN(c2cccc(Cl)n2)CC1	-8	6.8	-40	8922
7	CC(=O)N1CCc2cc(S(=O)(=O)CCC(=O)Nc3ccc4c(c3)OCCO4)ccc21	/	1.8	-19	3861
8	NNC(=O)CNC(=O)CNS(=O)(=O)c1ccccc1	-7	0.6	-21	4832
9	O=C(CSc1nnc(CNC(=O)c2c(F)cccc2F)o1)NCc1ccc(F)cc1	9	3.0	-20	4599
10	Cc1ccc(S(=O)(=O)N2CCN(Cc3cccc(F)c3)CC2)cc1	2	3.0	-5	3798
11	COC(=O)NN=C(C)c1ccc(C)c([N+](=O)[O-])c1	-1	-0.7	/	/
12	O=c1[nH]c(CSc2nnc(-c3cccnc3)n2C2CCCCC2)nc2ccccc12	-1	2.5	-30	10959

nr	Sa ugtP lethal	Mtb hypoxia inh growth	BJeLR lethal
1	49	9	9
2	-16	8	-1
3	0	2	/
4	/	/	0
5	-1	0	0
6	-2	2	-4
7	0	/	3
8	6	-6	3
9	11	1	-4
10	7	2	12
11	0	9	/
12	6	-4	-2

Entries from the list above that have fluorine, in the order listed:
nr	SMILES	Mtb hypoxia inh	Sa RN4220 lethal	PrP 5UTR inh	Autofluor counter
1	COc1ccc(NC(=O)N2CCN(C(=O)C(Cc3ccc(F)cc3)NC(C)=O)CC2)cc1 (stereo not given)	7	12	-21	3221
9	O=C(CSc1nnc(CNC(=O)c2c(F)cccc2F)o1)NCc1ccc(F)cc1	9	3.0	-20	4599
10	Cc1ccc(S(=O)(=O)N2CCN(Cc3cccc(F)c3)CC2)cc1	2	3.0	-5	3798

nr	Sa ugtP lethal	Mtb hypoxia inh growth	BJeLR lethal
1	49	9	9
9	11	1	-4
10	7	2	12

(list continues)
nr	SMILES	Mtb hypoxia inh	Sa RN4220 lethal	PrP 5UTR inh	Autofluor counter
13	CC1=C(C(=O)OC2CCCCC2)C(c2ccc(N(C)C)cc2)NC(=O)N1 (stereo not given)	-7	1.9	-25	4142
14	Cc1noc(C)c1C(=O)N1CCN(c2ncccn2)CC1	1	-1.2	-2	8088
15	COc1ccc(-c2cn3c(C)c(C(=O)N4CCN(c5ccccc5)CC4)sc3n2)cc1	-5	16	-17	5294
16	CCOc1ccc(CCNc2nc3ccccc3n3c(C)nnc23)cc1OCC	-3	5.2	-8	4258
17	CC(C)CNC(=O)COc1ccccc1[N+](=O)[O-]	17	4.8	-6	2008
18	COc1ccccc1CN(C)CC(=O)Nc1ccccc1-c1ccccc1	-2	11	-41	4800
19	COc1cccc(NC(=S)N(CCc2c(C)[nH]c3ccccc23)Cc2ccco2)c1	-3	5.6	-8	5662
20	COC(=O)c1cc(Br)c(=O)n(Cc2ccc(C(=O)O)cc2)c1	8	2.8	-12	2506
21	COc1ccc(CN2C(=O)c3cccnc3C2Nc2cc(Cl)ccc2OC)cc1 (stereo not given)	11	5.5	41	21495*
22	Cc1ccc(Nc2nnc(SC(C)C(=O)Nc3c(C)n(C)n(-c4ccccc4)c3=O)s2)cc1 (stereo not given)	4	3.2	-1	2491
23	O=C(CCCOc1ccc(Cl)cc1Cl)NN=Cc1ccccc1	-3	-8.2	/	/
24	CC(=NNc1ccc(F)cc1)c1ccncc1	3	8.6	/	/

nr	Sa ugtP lethal	Mtb hypoxia inh growth	BJeLR lethal
13	-1	-1	-2
14	6	0	-14
15	5	9	/
16	1	-9	8
17	3	10	-9
18	1	3	-6
19	-13	-3	-5
20	8	13	4
21	4	3	9
22	2	4	-1
23	-32	-11	/
24	2	3	/

Continuation:
nr	SMILES	Mtb hypoxia inh	Sa RN4220 lethal	PrP 5UTR inh	Autofluor counter
25	CC(=O)NC(CC(=O)O)c1ccc(F)cc1 (stereo not given)	/	/	-8	4221
26	CCOC(=O)c1ccc(NC(=O)c2cc3c(C)nn(-c4ccccc4Cl)c3s2)s1	1	-1.7	2	2412
27	Cc1ccc(Nc2cc(-c3ccccc3)nc3ncnn23)cc1	18	2.4	1	4528
28	CCOP(=O)(OCC)c1ccccc1OCP(C)(=O)COc1ccccc1P(=O)(OCC)OCC	6	-1.1	-27	3770
29	O=C(Nc1nc2ccsc2c(=O)s1)c1ccc(F)cc1	5	4.0	/	4743
30	Cc1cc(OCCN2CCCCC2)nc2ccccc12	/	4.8	/	/
31	COc1ccc(OC)c(CN2CCN(C(=O)[C@@H](NC(=O)c3cccc(C)c3)C(C)C)CC2)c1	9	3.3	-10	5216
32	CC(C)c1nc(SCC(=O)NCc2ccccc2)n[nH]1	/	-0.8	-25	4806
33	CCOC(=O)N1CCC(n2c(SCC(=O)N3CCCC3)nc3ccccc3c2=O)CC1	14	4.4	0	15509
34	COc1ccc(/C=N/NC(=O)c2cccc(Br)c2)cc1CSc1ccccn1	/	/	-102	2510
35	Cc1c(C=NNc2ccc([N+](=O)[O-])cn2)c2ccccc2n1Cc1ccccc1	11	0.6	/	/
36	c1csc(-c2noc(CN3CCc4sccc4C3)n2)c1	9	2.2	-22	4353

nr	Sa ugtP lethal	Mtb hypoxia inh growth	BJeLR lethal
25	/	/	-5
26	14	12	7
27	-14	9	-5
28	6	-2	-18
29	0	-2	2
30	5	/	-2
31	6	5	/
32	-2	/	/
33	1	7	4
34	/	/	0
35	4	8	/
36	17	4	0

Record cards, from the list above. Order of screens: Mtb hypoxia inh | Sa RN4220 lethal | PrP 5UTR inh | Autofluor counter | Sa ugtP lethal | Mtb hypoxia inh growth | BJeLR lethal
Results for Cc1ccc(Nc2cc(-c3ccccc3)nc3ncnn23)cc1 = 18 | 2.4 | 1 | 4528 | -14 | 9 | -5
Results for COc1ccc(/C=N/NC(=O)c2cccc(Br)c2)cc1CSc1ccccn1 = / | / | -102 | 2510 | / | / | 0

Next part
nr	SMILES	Mtb hypoxia inh	Sa RN4220 lethal	PrP 5UTR inh	Autofluor counter
37	COc1ccc(C(=O)OCC(=O)Nc2nnc(-c3ccccc3)o2)cc1	-4	12	-1	/
38	Cc1onc(-c2ccccc2)c1C(=O)NN=Cc1ccco1	5	3.1	/	/
39	COc1cc(/C=C/C(=O)O)ccc1OS(=O)(=O)c1c(C)cc(C)cc1C	11	19	-1	/
40	CCn1cc(C(=O)N2CCOCC2)c(=O)c2cc(S(=O)(=O)N(C)C3CCCCC3)ccc21	/	1.5	1	6223
41	Cc1nn(-c2ccccc2)c(C)c1NC(=O)COC(=O)CC(C)c1ccccc1 (stereo not given)	-6	0.8	-20	?
42	COc1ccc(CN=C2NC(=O)CC(C(=O)Nc3cc(C)cc(C)c3)S2)cc1 (stereo not given)	2	-7.1	-31	7226
43	Cc1cc(Cl)ccc1Oc1ncnc2oc(-c3ccccc3)cc12	/	-2.6	-25	2191
44	CCOC(=O)C1CCN(C(=O)c2ccc(CNS(=O)(=O)c3ccc(OC)cc3)cc2)CC1	-4	2.4	-5	4133
45	CC(Sc1nnc(N)s1)C(=O)NC1CCCCC1C (stereo not given)	-6	5.3	4	?
46	Cc1cc(N2CCOCC2)nc2ccc(NC(=S)NCCN(C)C)cc12	5	0.3	-15	3501
47	COc1ccc(N2CCN(c3ccc4nnc(CCC(=O)Nc5ccc(C)cc5)n4n3)CC2)cc1	-3	6.0	-43	5397
48	N#C/C(=C/c1ccc(N2CCOCC2)o1)C(=O)Nc1ccccc1	-3	1.5	-41	5511

nr	Sa ugtP lethal	Mtb hypoxia inh growth	BJeLR lethal
37	-8	-9	-5
38	7	-2	/
39	3	4	/
40	12	/	-11
41	-2	3	4
42	-1	4	1
43	4	/	5
44	2	2	-2
45	9	-9	3
46	1	3	-17
47	2	5	1
48	2	14	6

(more compounds)
nr	SMILES	Mtb hypoxia inh	Sa RN4220 lethal	PrP 5UTR inh	Autofluor counter
49	COc1ccccc1N1CCN(Cc2cc(=O)n3ccsc3n2)CC1	6	5.8	-12	2573
50	O=C(NN=Cc1cccc(Br)c1)c1ccc(N2CCCC2=O)cc1	-2	0.3	/	/
51	CC(=O)Nc1ccc(S(=O)(=O)Nc2cc(-c3ccccc3)nn2C)cc1	15	1.5	-22	4974
52	CCOC(=O)C(O)(CC(=O)c1ccc(Cl)cc1)C(=O)OCC	12	7.9	-2	3893
53	CC1CCN(c2nc3c(c(=O)n(C)c(=O)n3C)n2CCSc2nc3ccccc3s2)CC1	9	19	-14	9205
54	Cc1ccc(NC(=O)CN2C(=O)N/C(=C/c3ccco3)C2=O)cc1	/	/	-17	3385
55	Cc1cc(C)c(NC(=O)CO/N=C2\CCCc3nonc32)c(C)c1	/	/	7	9501
56	Cc1cc(C(=O)NC(=S)Nc2cccc(C(=O)O)c2C)ccc1[N+](=O)[O-]	/	/	-20	4797
57	COc1ccc(N2CCN(C(=O)c3sc4nc(-c5ccc(F)cc5)cn4c3C)CC2)cc1	2	4.7	-20	5939
58	O=C(/C=C/c1ccc(Br)cc1)Nc1ccc(S(=O)(=O)Nc2ncccn2)cc1	14	7.8	-9	4661
59	CCc1ccc(Nc2ncc3c(n2)CC(c2ccco2)CC3=O)cc1 (stereo not given)	9	1.1	-16	4668
60	COc1ccccc1C(=O)Nc1ccc(C(=O)Nc2ccccc2C(=O)O)cc1	5	2.4	-19	6211

nr	Sa ugtP lethal	Mtb hypoxia inh growth	BJeLR lethal
49	-1	8	6
50	-2	8	/
51	3	6	8
52	6	13	1
53	-20	14	4
54	/	/	13
55	/	/	5
56	/	/	-1
57	1	6	0
58	20	3	7
59	16	8	4
60	4	0	-1

Further records follow:
nr	SMILES	Mtb hypoxia inh	Sa RN4220 lethal	PrP 5UTR inh	Autofluor counter
61	O=C(Nc1ccc(Br)cn1)c1ccc(COc2c(F)c(F)cc(F)c2F)o1	7	3.1	-32	7779
62	CC1CCc2c(sc(N)c2C(=O)OC(C)C)C1 (stereo not given)	8	9.0	-4	2659
63	Cc1ccc(-c2cc(C(=O)N3CCc4ccccc4C3)[nH]n2)cc1C	9	6.6	-11	4383
64	CCC(=O)Nc1cccc(-c2ccc(N3CCN(C)CC3)nn2)c1	-3	5.2	-69	5016
65	COc1ccccc1OCC(=O)NCCS(=O)(=O)N1CCN(c2ccc(F)cc2)CC1	-1	0.3	-7	4792
66	O=[N+]([O-])c1ccc(C(O)C(CO)NC(=S)Nc2ccccc2)cc1 (stereo not given)	20	9.3	3	5763
67	COc1cc(C(=O)NNC(=O)NC2CCCCC2)cc(OC)c1OC	14	7.9	-18	3258
68	CN(Cc1ccccc1)C(=O)CCC1CCN(S(C)(=O)=O)CC1	13	5.2	-88	3629

nr	Sa ugtP lethal	Mtb hypoxia inh growth	BJeLR lethal
61	0	-7	/
62	4	-5	10
63	3	6	-6
64	0	-4	-6
65	2	10	7
66	39	8	3
67	-3	6	-4
68	9	10	-2

Gathered by group: those above containing two or more sulfur atoms (6)
nr	SMILES	Mtb hypoxia inh	Sa RN4220 lethal	PrP 5UTR inh	Autofluor counter
22	Cc1ccc(Nc2nnc(SC(C)C(=O)Nc3c(C)n(C)n(-c4ccccc4)c3=O)s2)cc1 (stereo not given)	4	3.2	-1	2491
26	CCOC(=O)c1ccc(NC(=O)c2cc3c(C)nn(-c4ccccc4Cl)c3s2)s1	1	-1.7	2	2412
29	O=C(Nc1nc2ccsc2c(=O)s1)c1ccc(F)cc1	5	4.0	/	4743
36	c1csc(-c2noc(CN3CCc4sccc4C3)n2)c1	9	2.2	-22	4353
45	CC(Sc1nnc(N)s1)C(=O)NC1CCCCC1C (stereo not given)	-6	5.3	4	?
53	CC1CCN(c2nc3c(c(=O)n(C)c(=O)n3C)n2CCSc2nc3ccccc3s2)CC1	9	19	-14	9205

nr	Sa ugtP lethal	Mtb hypoxia inh growth	BJeLR lethal
22	2	4	-1
26	14	12	7
29	0	-2	2
36	17	4	0
45	9	-9	3
53	-20	14	4

Assay outcomes as filed in PubChem.
